Compound activity deposited in PubChem BioAssay by several laboratories.
MT1-MMP act inh = blocks activation of human MT1-MMP | P50281 | HT1080 RFP-PRO-GFP cells, GFP/RFP ratio fluorescence, overnight; percent of plate control window, DMSO zero | GFP/RFP ratio change, % at 20 µM | 360,000 compounds, 0.061% hits;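 active means GFP/RFP ratio change of at least 30% with cell ATP level not reduced by more than half and red fluorescence within 50% of control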; further: strong numbers were not always called active
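Assay system: RFP-PRO-GFP reporter HT1080 cells; read-out basis: GFP/RFP fluorescence ratio; benchmarks: DMSO wells and RFP-L50D-GFP cells; doses: 20 µM single dose, 1% DMSO; schedule: overnight cell settling, then overnight compound exposure, 37 °C, 5% CO2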
eIF4H inh = inhibitors of RNA binding by human eIF4H. Q15056. AID 2012. 290,000 compounds, 0.94% hits. inhibition, % at 35 µM. eIF4H fluorescence polarization binding assay;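 active means 50% or more with normal probe brightness, or confirmed in later tests; inconclusive means above 50% with abnormal brightness, or retests that disagree; inactive means below 50% or failed in later tests; about a fifth of its hits are not listed in these tables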;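 further: calls also rest on retests at 20 µM and on dose response follow-up; 0% = protein and probe with vehicle and 100% = probe without protein; strong numbers were not always called active; many hits fall short of the cut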
Yeast UUG start = modulators of start codon recognition fidelity in yeast; S. cerevisiae UUG-firefly luciferase reporter, luminescence/redox ratio; activity score, % at 18.7 µM; 350,000 compounds, 0.13% hits; AID 602363;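 active means replicate mean at a twofold rise or more, about +100% in these data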;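 further: firefly luciferase made from a UUG start codon reports start codon fidelity; reporter light over untreated wells divided by growth signal over untreated wells; some hits fall short of that in this replicate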
PABP FP inh = blocks human PABP binding to poly(A) RNA | fluorescence polarization | AID 2014 | inhibition, % at 35 µM | 290,000 compounds, 1% hits;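 active means 50% or more with normal probe brightness, or confirmed in later tests; inconclusive means above 50% with abnormal brightness, or retests that disagree; inactive means below 50% or failed in later tests; about a fifth of its hits are not listed in these tables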;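 further: calls also rest on retests at 20 µM and on dose response follow-up; controls were probe without protein and protein plus probe with vehicle; some compounds called inactive have numbers as strong as hits; many hits fall short of the cut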
Target sequence (P11940 whole entry, looked up): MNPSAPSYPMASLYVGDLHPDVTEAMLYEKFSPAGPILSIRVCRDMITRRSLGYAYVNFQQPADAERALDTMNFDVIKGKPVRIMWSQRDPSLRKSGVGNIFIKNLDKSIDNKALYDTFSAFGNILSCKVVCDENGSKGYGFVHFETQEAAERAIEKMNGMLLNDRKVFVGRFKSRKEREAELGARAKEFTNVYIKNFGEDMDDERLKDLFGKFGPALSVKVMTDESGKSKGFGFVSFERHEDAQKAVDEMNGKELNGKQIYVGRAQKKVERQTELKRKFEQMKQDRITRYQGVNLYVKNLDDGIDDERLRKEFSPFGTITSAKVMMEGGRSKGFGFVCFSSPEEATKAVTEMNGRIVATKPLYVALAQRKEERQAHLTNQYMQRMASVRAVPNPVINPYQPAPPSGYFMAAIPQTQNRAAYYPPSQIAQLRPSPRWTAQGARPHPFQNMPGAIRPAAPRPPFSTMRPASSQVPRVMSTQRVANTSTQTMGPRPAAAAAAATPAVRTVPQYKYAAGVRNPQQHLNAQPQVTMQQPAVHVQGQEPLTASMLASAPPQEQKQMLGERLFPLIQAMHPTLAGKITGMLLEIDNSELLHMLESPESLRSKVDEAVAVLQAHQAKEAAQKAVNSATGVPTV
CSC inhib = blocks cancer stem cells. cancer stem cell-like cells viability, luminescence. AID 2717. inhibition, % at 7.5 µM. 300,000 compounds, 1.1% hits;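 active means mean at 75% or more and at least half the replicates too; inconclusive means mean and replicates disagree; tested in HMLE shEcad cells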;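 further: 0% = median of negative and 100% = median of positive control wells; the first replicate is given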
HIV Env fusion = inhibitors of HIV Env-mediated cell fusion. HeLa-JRFL Env/CEM21 cell fusion, luciferase. AID 651610. 360,000 compounds, 1.1% hits. inhibition, % at 12.3 µM;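 active means mean replicate inhibition score of at least 50 and every replicate individually at or above 50; inconclusive means only one of the two criteria met; inactive means mean below 50 and not all replicates reaching 50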;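 further: 0% = plate neutral controls and 100% = maraviroc near 300 nM; one replicate is shown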
Rce1 inh = yeast Ras-converting enzyme inhibition. yeast membranes, quenched prenylated peptide cleavage fluorescence. Q03530. 290,000 compounds, 0.27% hits. calls only;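 active means fall in fluorescence gain of 50% or more versus controls, with final raw signal at or below 3038400; inconclusive means same 50% fall but final raw signal above 3038400; inactive means fall in fluorescence gain under 50%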;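 further: plate controls were neutral control wells for no effect and wells lacking membranes for full effect; tested at 10 µM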
eIF4H inh retest = second read-out of eIF4H inh, no call of its own (marks repeat the call); inhibition, %; compound at 20 µM; confirmation average;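 mean of two retest wells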
PABP FP inh retest = also measured in PABP FP inh; calls as there; inhibition, %; compound at 20 µM; confirmation repeats;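 mean of two retest wells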
MT1-MMP act inh RFP = further read-out of MT1-MMP act inh, marked with its call; RFP signal change, %; measured here: RFP expression control read;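 0 = vehicle wells; hits needed this value within 50% of zero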
The depositor's hits bear a star; i = inactive; ? = inconclusive; . = not tested or not shown. An excerpt; the hit share may differ from the screen's.

SMILES | MT1-MMP act inh | MT1-MMP act inh RFP | eIF4H inh | Yeast UUG start | PABP FP inh | CSC inhib | HIV Env fusion | Rce1 inh | others
Cc1ccc(NC(=O)CSc2ccc(-c3ccco3)nn2)cc1 | 2 | -1 | 25 | . | -4 | -6 | -4 | i
COc1ccc(CCNC(=O)c2nonc2N)cc1 | 5 | 9 | -1 | -18 | -3 | -9 | -45 | i
COCCCn1c(SCC(=O)Nc2sc3c(c2C#N)CCCC3)nnc1-c1ccncc1 | -4 | -4 | -3 | 4 | -7 | -4 | . | .
COc1cc(C(=O)N2CCC(N3CCCCCC3)CC2)cc(OC)c1OC | 5 | 0 | . | -5 | . | -6 | . | i
CSc1ccc(CNC(=O)C2CCC(=O)N(Cc3cccc(F)c3)C2)cc1 (stereo not given) | -4 | 2 | -5 | -7 | 8 | -10 | 0 | i
O=C(Cc1ccccc1)N[C@@H](Cc1ccc(O)cc1)C(=O)O | . | . | -10 | . | -1 | . | . | i
COc1cccc(/C=N/NC(=O)c2cccc(N3CCCC3=O)c2)c1 | 1 | 3 | -7 | -12 | -3 | -4 | -22 | i
O=C(CC[C@H]1O[C@@H](n2ccc(=O)[nH]c2=O)[C@H](O)[C@@H]1O)N[C@H](Cc1ccccc1)C(=O)NCc1cccs1 | 1 | 4 | . | -19 | . | . | -1 | .
COc1ccccc1NC(=O)Nc1ccccc1SC | -5 | -1 | 2 | . | -6 | -3 | -11 | .
O=C1C=C(c2cccc(Cl)c2)C[C@@H](c2ccc3c(c2)OCO3)C1 | 3 | 1 | . | 4 | . | 34 | 14 | .
CCc1ccc(NC(=O)CCC(=O)Nc2nnc(C(C)C)s2)cc1 | -8 | 1 | -16 | -26 | 0 | -5 | 4 | i
Cc1ccc(Nc2nc(N)c([N+](=O)[O-])c(NCc3ccco3)n2)cc1C | -9 | -13 | -2 | 1 | -2 | 84* | . | i
Cc1ccccc1C(=O)NNC(=O)c1ccncc1 | -3 | -3 | -2 | -11 | -7 | -10 | 7 | i
NNC(=O)COc1ccc(C2SCCS2)cc1 | 0 | 1 | 0 | . | 21 | 8 | -4 | i
CCCc1cc(=O)[nH]c(SCC(=O)Nc2ccccc2C#N)n1 | 4 | 7 | -2 | -6 | -13 | 3 | . | i
CO/N=C(\c1ccccc1)c1cccnc1 | 2 | 3 | -2 | -6 | -6 | -14 | 20 | i
Cc1cc(C)cc(C(=O)Nc2nnc(SCC(=O)N3CCCc4ccccc43)s2)c1 | 2 | 1 | -7 | . | -8 | 75* | -13 | i
CSc1ccccc1NC(=O)Cc1ccccc1 | -1 | -1 | -8 | -16 | 4 | -2 | 6 | i
COC(=O)C(NC(=O)CCc1nnc2ccc(N3CCCCC3)nn12)C(C)C (stereo not given) | 5 | 5 | 5 | -12 | -2 | -10 | -36 | i
CC(C)c1ccc(S(=O)(=O)N2CCN(C(=O)C3CC3C)CC2)cc1 (stereo not given) | 1 | -8 | . | -8 | . | . | . | i
CCNC(=S)NNC(=O)c1csc(C(C)C)c1 | -1 | -4 | -7 | -27 | 36 | -4 | -282 | i
OCCNCc1cccc(Br)c1 | 11 | -4 | 5 | 44 | 7 | 1 | -1 | .
c1ccc(-c2ccccc2OCCOCCN2CCOCC2)cc1 | 0 | 1 | 10 | -1 | 4 | 21 | -5 | i
COc1ccc(NC(=O)c2ccc3c(c2)C(=O)N(CC2CCCO2)C3=O)cc1O (stereo not given) | 0 | 1 | -14 | -10 | -4 | -5 | . | i
COCCCN(C(=O)Cn1ncc2c(=O)oc3ccc(C)cc3c21)C(C)c1ccncc1 (stereo not given) | . | . | 9 | -7 | 3 | -1 | -9 | i
Cc1n[nH]c(C)c1CCNC(=O)C1CCC(=O)N(CCc2cccc(F)c2)C1 (stereo not given) | 1 | 4 | 4 | -13 | 5 | 18 | -9 | i
Cc1cc(C)c(C)c(OCCCCN(C)Cc2ccccc2)c1 | -4 | 2 | 7 | -10 | 0 | . | 37 | i
Cc1ccc2c(c1)c1c(n2C)-c2[nH]ncc2CC1 | -1 | 5 | 6 | -6 | 10 | 22 | -29 | .
CCc1cccc2c(SC(C)C(=O)NCC3CCCO3)nc(-c3ccccc3)nc12 (stereo not given) | -17 | -11 | -7 | -9 | -7 | 20 | -11 | i
COc1ccc(-c2cc(NC(C)=O)c3ncc(-c4cc(OC)c(OC)c(OC)c4)n3c2)cn1 | -5 | -6 | . | -11 | . | . | -94 | .
CCOc1ccccc1NC(=O)c1cccc(NC(=O)c2ccco2)c1 | -5 | -14 | -2 | -22 | 22 | 60 | . | i
CCOc1cc(C=O)cc(Br)c1OCC(=O)NCCc1ccccc1 | 2 | 1 | 14 | . | 2 | -21 | -45 | i
CN1CCC(N(C)S(=O)(=O)c2ccc(NC(=O)COc3ccc(Cl)cc3)cc2)CC1 | -6 | 0 | . | -9 | . | . | 0 | .
CC(C)(C)c1[nH]nc2c1C(c1ccc(OC(=O)c3ccco3)cc1)C(C#N)=C(N)O2 (stereo not given) | -2 | 2 | 4 | -12 | 1 | -10 | . | i
COc1ccc(OC)c(C(c2nnnn2CCc2ccccc2)N2CCN(c3ccccc3)CC2)c1 (stereo not given) | -25 | -18 | 3 | -2 | -10 | 25 | -164 | i
CCc1ccc(NC(=O)[C@H](C)NC(=O)C2CCN(C(=O)[C@@H](NC(=O)OC(C)(C)C)C(C)C)CC2)cc1 | 2 | 0 | -1 | -10 | 19 | -9 | -28 | i
O=C(OCC(=O)N1CCC(c2ccccc2)=N1)c1ccc(Cl)s1 | 5 | -2 | . | -14 | . | 1 | . | .
Cc1ccc(C(=O)Nn2cnnc2)c(Cl)c1 | -1 | -2 | -9 | -11 | 2 | 8 | -53 | i
O=C(COC(=O)c1cnc(Cl)c(Cl)c1)NC1CCCC1 | 8 | 5 | . | -8 | . | . | 0 | .
Clc1ccc(COc2cccc(CNCc3ccncc3)c2)cc1 | -4 | -22 | -1 | -10 | 8 | 23 | 34 | i
CC(Sc1ncccn1)C(=O)N1CCc2ccccc21 (stereo not given) | 4 | 6 | . | -3 | . | . | -9 | .
CCOC(=O)C1=C(N)OC2=C(C(=O)CC(C)C2)C1c1cccnc1 (stereo not given) | 2 | 1 | -6 | . | 37 | -9 | -41 | i
Nc1c(Cl)cc(C2=NCCn3nc4ccccc4c32)cc1Cl | -7 | -2 | . | -8 | . | 1 | 0 | i
O=c1c2c3c(sc2ncn1Cc1ccc(F)cc1)CCC3 | -7 | 2 | 47 | -19 | 28 | 9 | . | i
O=C(NNC(=O)c1ccccc1O)c1ccc(S(=O)(=O)Nc2ccccc2)cc1 | 8 | 1 | . | -5 | . | 54 | 4 | i
O=C(Nc1c(C(=O)O)[nH]c2ccccc12)NC1CCCCC1 | -2 | 0 | 10 | 10 | 8 | -9 | . | i
Nc1cc(CN2C(=O)c3ccccc3C2=O)cc(Cl)c1O | -4 | -8 | -12 | -16 | -8 | 12 | . | i
O=C(Cn1ncc(Cl)c(Cl)c1=O)NCC1CCCCC1 | -8 | -26 | 3 | -31 | -3 | 100* | i | .
CC(=O)c1cccc(N=C2NC(=O)CS2)c1 | 0 | -1 | 0 | -4 | 4 | -4 | . | i
CC(C)OC(=O)Nc1ccc2c(c1)N(C(=O)CCN1CCN(CCO)CC1)c1ccccc1CC2 | 2 | 5 | -1 | -5 | 18 | -4 | -4 | i

Continued (two carried over from the part before).
SMILES | MT1-MMP act inh | MT1-MMP act inh RFP | eIF4H inh | Yeast UUG start | PABP FP inh | CSC inhib | HIV Env fusion | Rce1 inh | others
CC(=O)c1cccc(N=C2NC(=O)CS2)c1 | 0 | -1 | 0 | -4 | 4 | -4 | . | i
CC(C)OC(=O)Nc1ccc2c(c1)N(C(=O)CCN1CCN(CCO)CC1)c1ccccc1CC2 | 2 | 5 | -1 | -5 | 18 | -4 | -4 | i
COc1ccccc1CNC(=O)COC(=O)c1cnccn1 | 1 | 2 | -14 | -12 | 12 | . | . | i
CCCCn1c(N)c(N(CCOC)C(=O)c2cnccn2)c(=O)[nH]c1=O | -8 | 2 | . | -11 | . | -2 | -4 | i
Nc1nc(NC(=O)c2ccc(F)cc2)ns1 | 2 | 0 | . | -15 | . | -9 | -53 | i
COC(=O)c1cccc(NC(=O)Nc2ccc(Cl)cc2Cl)c1 | 4 | -5 | -9 | . | 2 | 2 | -20 | i
COc1cccc(CNC(=O)CCCn2c(=S)[nH]c3cc4c(cc3c2=O)OCO4)c1 | 0 | 1 | -6 | -1 | -6 | 3 | 0 | i
C=CCSc1nc(=O)n2ccccc2n1 | 8 | 6 | -10 | -17 | -5 | -8 | 13 | i
COc1ccc(CNC[C@H]2O[C@@H](n3cnc4c(N)ncnc43)[C@H](O)[C@@H]2O)cc1OC | 1 | 5 | . | -2 | . | -13 | . | .
CCn1c(SCC(=O)N2CCC(C)CC2)nc2c1c(=O)n(C)c(=O)n2C | 1 | 3 | 2 | -10 | 6 | . | 4 | i
CC(=O)Nc1ccc(N/C=C(\C=O)c2nc3ccccc3o2)cc1 | -3 | 4 | -18 | -20 | -14 | -8 | 5 | i
Cn1cnnc1SCC(=O)c1c(N)n(Cc2ccccc2)c(=O)n(C)c1=O | 4 | 6 | 0 | . | -9 | -6 | -6 | i
Cc1ccc(-c2nc(NCc3ccco3)n(C(=O)c3ccco3)n2)cc1 | 4 | 3 | 57 | -17 | -3 | -3 | -44 | i | eIF4H inh retest=6;PABP FP inh retest=21
CC(C)(C)NC(=O)C(=O)NCc1ccccn1 | 2 | 4 | -4 | -16 | 15 | -14 | -5 | i
CC(C)(C)NC(=O)C(c1ccc(O)cc1)N(Cc1ccc2c(c1)OCO2)C(=O)CCl (stereo not given) | -2 | -4 | . | -16 | . | . | 1 | .
CCCCn1c(SCC(=O)N2CCCc3ccccc32)nc2c1c(=O)n(C)c(=O)n2C | 7 | 0 | 6 | -18 | -2 | -21 | . | i
Cc1cc(C)n(CCNC(=O)c2cc(COc3ccc4ncccc4c3)on2)n1 | 3 | -19 | -8 | -6 | 5 | -8 | 7 | i
Cc1ccc(Nc2cc(C(=O)NCCCN3CCOCC3)c3ccccc3n2)cc1C | 1 | 0 | -7 | -16 | 32 | -14 | -7 | i
COc1ccccc1N1CCN(C(=O)CSc2nc3ccccc3nc2N2CCCCC2)CC1 | -12 | -8 | -2 | 7 | 3 | 17 | . | i
CCCCn1c(N)c(N(CCC(C)C)C(=O)CSc2nnc(Nc3ccccc3)s2)c(=O)[nH]c1=O | -5 | -12 | -2 | . | -3 | -13 | -33 | i
CC1=C(C(=O)OCC2CCCCC2)C(c2ccccc2F)NC(=O)N1 (stereo not given) | 0 | -16 | . | -12 | . | -8 | 12 | i
Cc1ccc(NCc2n[nH]c(=S)n2-c2ccccc2)c(C)c1 | 3 | 2 | -6 | . | 6 | -15 | 7 | i
Cc1ccc2ccc(C(Nc3ccccn3)c3ccccc3)c(O)c2n1 (stereo not given) | 5 | -5 | 17 | -36 | -1 | . | 23 | i
COc1ccccc1-c1ccc(SCc2cccc(F)c2)nn1 | -2 | -7 | 2 | . | -14 | 12 | 8 | i
O=C(CCC(=O)c1ccc(F)cc1)NC1CCCN(Cc2ccccc2F)C1 (stereo not given) | -3 | 2 | -6 | -7 | 5 | -8 | -24 | i
COc1ccc(NC(=O)CSc2n[nH]c(C)c2[N+](=O)[O-])cc1 | -7 | -5 | -15 | . | ? | -2 | -5 | i
